MLL AF4-AF9 inh = MLL-AF4/AF9 protein interaction inhibition | P42568 | AlphaScreen, biotin-AF4 peptide binding to FLAG-AF9 | inhibition, % at 10 µM | actives 0.47% (n = 350,000) | AID 651704;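 active means every replicate reaching a set inhibition limit, whatever the replicate mean, cut at about 25% in these data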;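 further: 0% = plate neutral control median and 100% = total signal loss; the record names both 10 and 1 µM as test concentration; the first replicate is given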
Target sequence (P42568 whole entry, looked up): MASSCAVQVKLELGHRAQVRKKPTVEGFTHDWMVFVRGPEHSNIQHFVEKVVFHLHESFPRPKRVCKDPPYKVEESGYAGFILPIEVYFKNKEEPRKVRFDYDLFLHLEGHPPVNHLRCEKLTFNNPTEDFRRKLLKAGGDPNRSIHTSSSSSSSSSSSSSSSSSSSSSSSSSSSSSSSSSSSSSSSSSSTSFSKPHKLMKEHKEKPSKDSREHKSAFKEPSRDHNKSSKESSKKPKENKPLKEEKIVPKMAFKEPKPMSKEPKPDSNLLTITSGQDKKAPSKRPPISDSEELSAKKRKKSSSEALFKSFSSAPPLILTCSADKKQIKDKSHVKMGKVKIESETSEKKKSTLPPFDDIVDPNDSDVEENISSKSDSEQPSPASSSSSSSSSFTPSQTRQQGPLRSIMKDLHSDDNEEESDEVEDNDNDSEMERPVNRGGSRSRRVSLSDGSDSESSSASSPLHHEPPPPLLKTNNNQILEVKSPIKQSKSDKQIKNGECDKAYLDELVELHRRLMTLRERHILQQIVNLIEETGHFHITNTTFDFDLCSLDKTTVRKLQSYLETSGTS
An asterisk follows results filed as active. This is a subset, so the mix of outcomes need not match the whole.

MLL AF4-AF9 inh	SMILES
-6.5	CC1=C(C(=O)N(C)C)CC(CC(=O)NCc2cccc3ccccc23)C(=O)N1Cc1ccc(C(C)(C)C)cc1 (centres undefined)
-5.4	CN(C)C(=O)c1ccc(-c2ccc3c(c2)[C@H]2[C@H](CCN2C(=O)C2CCOCC2)[C@H](CO)N3C)cc1
2.6	C[C@@H]1CN([C@H](C)CO)C(=O)c2cc(NC(=O)CCN3CCOCC3)ccc2O[C@@H]1CN(C)Cc1ccc(C(=O)Nc2ccccc2N)cc1
-0.3	COc1cccc(S(=O)(=O)N[C@@H]2C=C[C@@H](CC(=O)NCc3ccc(F)cc3)O[C@@H]2CO)c1
2.4	Nc1ccn([C@@H]2O[C@H](CNCc3cc(Cl)ccc3OCc3ccc(Cl)cc3)[C@@H](O)[C@H]2O)c(=O)n1
16.8	CCC(=O)N1CCCCN2[C@H](CO)[C@@H](c3ccc(/C=C/c4ccccc4)cc3)[C@H]2C1
-1.5	CC(=O)Nc1cc(-c2ccc(N)cc2)cn2c(-c3cccc(C(F)(F)F)c3)cnc12
0.3	CO[C@@H]1CN(C)C(=O)c2ccc(NS(C)(=O)=O)cc2OC[C@@H](C)N(CCC(F)(F)F)C[C@@H]1C
-1.7	C/C=C/c1ccc2c(c1)O[C@@H](CN(C)C(=O)C1CCOCC1)[C@H](C)CN([C@H](C)CO)S2(=O)=O
-5.5	CCCNC(=O)N1CC2(CCN(Cc3ccccn3)CC2)c2c(n(C)c3cc(OC)ccc23)[C@H]1CO
-4.5	CO[C@@H]1CN(C)C(=O)c2ccc(NC(=O)c3cccc(F)c3)cc2OC[C@H](C)N(C)C[C@H]1C
5.4	C[C@H]1CCCCO[C@H](CN(C)C(=O)Nc2ccc3c(c2)OCO3)[C@@H](C)CN([C@@H](C)CO)C(=O)c2cc(NS(=O)(=O)c3ccccc3)ccc2O1
-1.0	COc1ccc(CN(C)C[C@H]2Oc3ccc(NC(=O)C4CCCCC4)cc3CC(=O)N([C@@H](C)CO)C[C@@H]2C)cc1
2.1	O=C(C[C@H]1C[C@@H]2c3cc(NC(=O)Nc4ccccc4)ccc3O[C@@H]2[C@@H](CO)O1)NCc1ccccc1
6.1	CC(C)(C)[S@@](=O)N1Cc2cc(C(=O)NCc3ccc4c(c3)OCO4)nc(-c3cccc(-c4cccnc4)c3)c2[C@H]1CCO
-3.3	CN(C)CC#Cc1ccc([C@H]2[C@@H](CO)N3C(=O)CN(C(=O)c4ccc(F)cc4)C[C@@H]23)cc1
-0.5	Cc1ccc(S(=O)(=O)N(C)C[C@@H]2OCc3cn(nn3)CCCC(=O)N([C@H](C)CO)C[C@@H]2C)cc1
-1.0	COC(=O)C[C@H]1CC[C@H]2[C@@H](COc3ccc(NC(=O)Nc4c(C)noc4C)cc3C(=O)N2C)O1
6.7	COc1ccccc1C#Cc1ccc([C@H]2[C@@H](CO)N3CCCCN(CCC(F)(F)F)C[C@@H]23)cc1
-2.1	COC(=O)C[C@H]1CC[C@@H]2[C@@H](COc3ccc(NS(=O)(=O)c4ccccc4Cl)cc3C(=O)N2C)O1

4 of these compounds in another layout.
Cc1ccc(S(=O)(=O)N(C)C[C@@H]2OCc3cn(nn3)CCCC(=O)N([C@H](C)CO)C[C@@H]2C)cc1
  MLL AF4-AF9 inh: -0.5
O=C(C[C@H]1C[C@@H]2c3cc(NC(=O)Nc4ccccc4)ccc3O[C@@H]2[C@@H](CO)O1)NCc1ccccc1
  MLL AF4-AF9 inh: 2.1
C[C@@H]1CN([C@H](C)CO)C(=O)c2cc(NC(=O)CCN3CCOCC3)ccc2O[C@@H]1CN(C)Cc1ccc(C(=O)Nc2ccccc2N)cc1
  MLL AF4-AF9 inh: 2.6
CO[C@@H]1CN(C)C(=O)c2ccc(NC(=O)c3cccc(F)c3)cc2OC[C@H](C)N(C)C[C@H]1C
  MLL AF4-AF9 inh: -4.5

The listing continues:
MLL AF4-AF9 inh	SMILES
-0.5	C[C@H](CO)N1C[C@H](C)[C@H](CN(C)S(=O)(=O)c2ccccc2)Oc2ccc(NC(=O)CCCCCC(=O)Nc3ccccc3N)cc2CC1=O
0.4	C[C@H](CO)N1C[C@H](C)[C@@H](CN(C)CC2CCCCC2)Oc2ccc(NS(=O)(=O)c3ccc(F)cc3)cc2C1=O
-0.2	C[C@@H]1CCCCO[C@@H](CN(C)C(=O)c2ccccc2)[C@H](C)CN([C@H](C)CO)C(=O)c2cc(NC(=O)c3ccccc3)ccc2O1
-1.9	COc1ccc(C#Cc2ccc([C@H]3[C@H](CO)N4CCCCN(C(=O)Nc5cccc(F)c5)C[C@@H]34)cc2)cc1
-4.2	O=C(c1ccncc1)N1CC(=O)N2[C@H](C1)[C@H](c1ccc(-c3cccnc3)cc1)[C@@H]2CO
12.5	C[C@H]1CN([C@@H](C)CO)C(=O)c2ccccc2-c2ccccc2CO[C@H]1CN(C)Cc1ccc(Oc2ccccc2)cc1
0.9	COc1ccc(NC(=O)Nc2ccc3c(c2)C(=O)N([C@@H](C)CO)C[C@H](C)[C@@H](CN(C)Cc2ccc(C(F)(F)F)cc2)O3)cc1
-12.1	Cc1c(C(=O)NCc2cccs2)sc(=O)n1Cc1ccc(S(C)(=O)=O)cc1
3.9	COc1ccc2c3c(n(C)c2c1)[C@@H](CO)N(Cc1ccccc1)CC31CN(S(C)(=O)=O)C1
-4.8	C[C@@H]1CN([C@H](C)CO)C(=O)c2cc(C3=CCCC3)cnc2O[C@@H]1CN(C)Cc1ccccc1C(=O)O
-7.0	CC=Cc1ccc2n(c1=O)C[C@@H]1[C@@H](CO)[C@H](C(=O)NCc3ccncn3)N(C(=O)C3CCCC3)[C@H]21 (mixture of isomers)
-7.9	COc1cc(C(O)c2nc(-c3ccc4ccccc4c3)cs2)ccc1F (centres undefined)
5.7	C[C@@H]1CCCCO[C@@H](CN(C)Cc2ccc(C(F)(F)F)cc2)[C@H](C)CN([C@@H](C)CO)C(=O)c2cc(NC(=O)CCCN(C)C)ccc2O1
6.0	O=C(Nc1ccc(F)cc1)N1CCCCN2[C@H](CO)[C@@H](c3ccc(C#Cc4ccccn4)cc3)[C@H]2C1
2.1	COc1ccccc1NC(=O)N1CC(=O)N2[C@H](C1)[C@@H](c1ccc(C#CC(C)C)cc1)[C@@H]2CO
-1.5	COC(=O)c1cc2c(c3c4cc(OC)ccc4n(S(=O)(=O)c4ccc(F)cc4)c13)C(=O)N(Cc1ccccc1)C2
-1.5	COc1ccc(NC(=O)C2(C)CCCN(C(C)C)C2)cc1OC (centres undefined)
-0.5	COc1ccc(NC(=O)Nc2ccc3c(c2)CC(=O)N([C@H](C)CO)C[C@@H](C)[C@@H](CN(C)S(=O)(=O)c2cccs2)O3)cc1
-1.3	C/C=C/c1ccc([C@@H]2[C@@H](CO)N(C(=O)CC)[C@@H]2CNC(=O)CC)cc1
3.4	C[C@H](CO)N1C[C@H](C)[C@@H](CN(C)Cc2ccccc2)Oc2c(NC(=O)c3ccc(-c4nccs4)cc3)cccc2C1=O
-1.4	CC(C)CC#Cc1cnc2c(c1)C(=O)N([C@H](C)CO)C[C@H](C)[C@@H](CN(C)Cc1ccccn1)O2
0.3	CO[C@@H]1CN(C)C(=O)c2ccc(NC(C)=O)cc2OC[C@H](C)N(Cc2nccs2)C[C@H]1C
-1.0	O=C(Nc1cc(F)ccc1F)N1CCCCN2[C@H](CO)[C@H](c3ccc(-c4cncnc4)cc3)[C@H]2C1
0.1	CCC(=O)N1[C@H](CN(C)C(C)=O)[C@H](c2ccc(-c3cccnc3)cc2)[C@@H]1CO
1.2	CN1CCN(C(=O)C[C@@H]2C[C@H]3c4cc(NC(=O)NC5CCCCC5)ccc4O[C@H]3[C@H](CO)O2)CC1
-2.5	CN(C)C(=O)C[C@@H]1C[C@H]2c3cc(NC(=O)C4CCOCC4)ccc3O[C@H]2[C@H](CO)O1
-2.9	Cc1cccc(C)c1NC(=O)c1csc([C@H]2C[C@H](O)[C@@H](CO)O2)n1
-21.2	O=C(Nc1ccc(F)cc1)N[C@H]1C=C[C@@H](CC(=O)N2CCOCC2)O[C@H]1CO
-2.8	COc1ccc(NC(=O)N2C[C@H](O)COC[C@@H]3O[C@@H](CC(=O)N4CCN(C)CC4)CC[C@H]32)cc1
-3.3	CCc1cccc(NC(=O)O[C@H]2[C@H](OC(=O)Nc3ccccc3-c3ccccc3)[C@H](OC(=O)Nc3ccccc3-c3ccccc3)[C@@H](OC)O[C@@H]2CO)c1
12.4	CN(C)C(=O)c1cccc(-c2ccc3c(c2)[C@@H]2[C@@H](CCN2C(=O)C2CCCC2)[C@H](CO)N3)c1
-3.2	Cn1cnc(S(=O)(=O)N2C[C@@H](O)COC[C@H]3O[C@@H](CC(=O)NCc4ccc(F)cc4)CC[C@@H]32)c1
-21.9	CCCNC(=O)N1[C@H](CO)[C@@H](c2ccccc2)[C@@H]1CNC(=O)c1cccc(F)c1
0.4	CCC(=O)N(C)C[C@@H]1Oc2cc(-c3ccc(F)cc3)ccc2S(=O)(=O)N([C@H](C)CO)C[C@H]1C
-1.8	COCC#Cc1cnc2c(c1)C(=O)N([C@H](C)CO)C[C@@H](C)[C@H](CN(C)C(=O)Cc1ccccc1)O2
-3.1	Cc1ccc(S(=O)(=O)N[C@@H]2C=C[C@@H](CC(=O)O)O[C@H]2CO)cc1
6.9	COc1ccc2c3c([nH]c2c1)[C@@H](CO)N(C(=O)c1cccc(F)c1)CC31CCN(C(=O)c2cccc(F)c2)CC1
3.8	CS(=O)(=O)c1ccc(NC(=O)c2cc3c(cc2Cl)N2CCCCCC2=NS3(=O)=O)cc1
-0.9	C[C@@H]1CN([C@@H](C)CO)C(=O)c2cc(NC(=O)Nc3ccc(C(F)(F)F)cc3)ccc2O[C@H]1CN(C)Cc1ccc(-c2ccccc2)cc1
0.7	CCCNC(=O)C[C@H]1CC[C@H]2[C@H](COc3ccc(NC(=O)C4CCCC4)cc3C(=O)N2C)O1

Looked up above.
Cc1cccc(C)c1NC(=O)c1csc([C@H]2C[C@H](O)[C@@H](CO)O2)n1 in MLL AF4-AF9 inh → -2.9
COc1ccc(NC(=O)Nc2ccc3c(c2)C(=O)N([C@@H](C)CO)C[C@H](C)[C@@H](CN(C)Cc2ccc(C(F)(F)F)cc2)O3)cc1 in MLL AF4-AF9 inh → 0.9
CC(C)(C)[S@@](=O)N1Cc2cc(C(=O)NCc3ccc4c(c3)OCO4)nc(-c3cccc(-c4cccnc4)c3)c2[C@H]1CCO in MLL AF4-AF9 inh → 6.1
O=C(Nc1ccc(F)cc1)N[C@H]1C=C[C@@H](CC(=O)N2CCOCC2)O[C@H]1CO in MLL AF4-AF9 inh → -21.2
CC=Cc1ccc2n(c1=O)C[C@@H]1[C@@H](CO)[C@H](C(=O)NCc3ccncn3)N(C(=O)C3CCCC3)[C@H]21 (mixture of isomers) in MLL AF4-AF9 inh → -7.0

(more compounds)
MLL AF4-AF9 inh	SMILES
1.7	COCC(=O)Nc1ccc2c(c1)OC[C@H](C)N(C(=O)c1cnccn1)C[C@@H](C)[C@H](OC)CN(C)C2=O
3.4	CCc1nc2c(OCCn3cccc3)cccn2c1N(C)C(=O)C1CC1
-0.2	CC(C)NC(=O)Nc1ccc2c(c1)C(=O)N([C@@H](C)CO)C[C@H](C)[C@@H](CN(C)CC1CCCCC1)O2
1.6	Cc1ccccc1C(=O)N1[C@@H](C(C)C)COc2cc(Br)ccc2S1(=O)=O
-1.9	C[C@@H]1CN([C@H](C)CO)C(=O)c2ccccc2-c2ccccc2CO[C@H]1CN(C)C(=O)Nc1ccccc1
7.7	CC(C)NC(=O)Nc1ccc2c(c1)C(=O)N([C@@H](C)CO)C[C@@H](C)[C@H](CN(C)Cc1ccc(Cl)c(Cl)c1)OCCCC[C@@H](C)O2
-2.2	CC(C)CN(C[C@@H]1N[C@@H](CO)[C@@H]1c1ccccc1)C(=O)CN(C)C
-2.3	C[C@@H]1CN([C@H](C)CO)C(=O)c2cc(NC(=O)Nc3cccc4ccccc34)ccc2O[C@H]1CN(C)C(=O)Nc1cccc2ccccc12
-1.4	COCC(=O)N(C)C[C@H]1Oc2cc(C#Cc3cccnc3)ccc2S(=O)(=O)N([C@@H](C)CO)C[C@H]1C
1.5	C[C@H]1CN([C@@H](C)CO)C(=O)c2cccc(NC(=O)c3nc4ccccc4s3)c2O[C@@H]1CN(C)C(=O)Nc1cccc2ccccc12
1.0	C[C@@H]1CN([C@H](C)CO)C(=O)c2cc(NC(=O)Nc3ccc(C(F)(F)F)cc3)ccc2O[C@@H]1CN(C)S(=O)(=O)c1cn(C)cn1
27.2*	CCCC#Cc1ccc([C@H]2[C@H]3CN(C(=O)c4cccnc4)CC(=O)N3[C@H]2CO)cc1
1.1	COC(=O)[C@]12C[C@H](CC(=O)NCc3ccc(C)o3)C(=O)N(CCC3=CCCCC3)C1=C[C@H](C(C)(C)C)O[C@@H]2C
-5.3	C[C@@H]1CN([C@H](C)CO)C(=O)c2cc(NC(=O)CCCN(C)C)ccc2O[C@H]1CN(C)Cc1ccccc1
-3.4	Cc1noc(C)c1NC(=O)N(C)C[C@H]1OCCCC[C@@H](C)Oc2ccc(NC(=O)c3ccncc3)cc2C(=O)N([C@H](C)CO)C[C@H]1C
-1.1	CCC(=O)N[C@H]1C=C[C@@H](CC(=O)NCc2ccccc2OC)O[C@@H]1CO
-2.6	C[C@H](CO)N1C[C@H](C)[C@H](CN(C)C(=O)C2CCOCC2)Oc2ncc(C#CC3(O)CCCC3)cc2C1=O
-1.7	COc1ccc2c3c([nH]c2c1)[C@@H](CO)N(C(=O)c1ccccc1)CC31CCN(C(=O)CC2CC2)CC1
1.6	COc1ccccc1-c1cn(CC[C@@H]2CC[C@@H](NC(=O)C3CCCC3)[C@H](CO)O2)nn1
-0.7	COC(=O)C[C@@H]1CC[C@H]2[C@H](COc3ccc(NC(=O)C4CC4)cc3C(=O)N2C)O1
-2.8	C[C@@H]1CN([C@H](C)CO)C(=O)CCCn2cc(nn2)CO[C@@H]1CN(C)S(=O)(=O)c1ccc2c(c1)OCCCO2
-14.3	CCC(=O)N1[C@@H]2Cn3c(ccc(-c4ccccc4F)c3=O)[C@H]1[C@@H](C(=O)NC1CCC1)[C@@H]2CO
0.4	O=C(N[C@@H]1CC[C@@H](CCNS(=O)(=O)c2cccc(Cl)c2)O[C@@H]1CO)c1ccccc1
-1.6	COC(=O)c1c(N)[nH]c(C(=O)c2ccccc2)c1-c1ccc(Br)cc1
